AF4-AF9 inh: inhibitors of AF4 peptide binding to AF9, primary screen, biochemical, AlphaScreen, biotin-AF4 peptide, FLAG-AF9, single point. Protein AF-9 (Homo sapiens), P42568. inhibition, % at 10 µM. actives 0.47% (n = 350,000). AID 651704, 2012;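 active = every replicate reaching a set inhibition limit, whatever the replicate mean, cut at about 25% in these data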;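 note: 0% = plate neutral control median and 100% = total signal loss; the record names both 10 and 1 µM as test concentration; the first replicate is given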
Target sequence (P42568 whole entry, looked up): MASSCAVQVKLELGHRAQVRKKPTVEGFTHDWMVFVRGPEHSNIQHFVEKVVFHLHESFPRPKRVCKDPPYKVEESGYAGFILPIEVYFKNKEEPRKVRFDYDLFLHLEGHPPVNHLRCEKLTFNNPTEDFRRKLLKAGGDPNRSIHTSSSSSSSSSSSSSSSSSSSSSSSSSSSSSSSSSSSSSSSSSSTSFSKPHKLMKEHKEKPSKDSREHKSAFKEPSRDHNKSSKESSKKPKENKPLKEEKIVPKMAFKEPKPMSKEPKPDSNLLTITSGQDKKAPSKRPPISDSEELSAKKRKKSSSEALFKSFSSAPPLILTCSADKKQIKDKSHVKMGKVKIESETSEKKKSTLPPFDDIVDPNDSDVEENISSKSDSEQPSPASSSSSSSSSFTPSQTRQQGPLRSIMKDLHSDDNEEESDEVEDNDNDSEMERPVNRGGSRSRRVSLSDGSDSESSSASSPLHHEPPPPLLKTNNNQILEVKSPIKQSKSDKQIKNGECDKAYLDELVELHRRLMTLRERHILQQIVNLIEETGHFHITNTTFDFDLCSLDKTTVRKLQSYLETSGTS
FGF22 binding: binders of human FGF22 protein, primary screen, FGF22 synaptogenesis inhibitor project, biophysical, thermal shift, single point; recombinant FGF22 thermal shift, SYPRO orange fluorescence; percent of sucrose octasulfate shift, DMSO zero; actives 1.5% (n = 340,000); AID 651658, 2012; Fibroblast growth factor 22 (Homo sapiens), Q9HCT0; calls only at 9.99 µM;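 active = melting point raised past a set limit in the mean and every replicate; three in four hits are not shown here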
Target sequence (Q9HCT0 whole entry, looked up): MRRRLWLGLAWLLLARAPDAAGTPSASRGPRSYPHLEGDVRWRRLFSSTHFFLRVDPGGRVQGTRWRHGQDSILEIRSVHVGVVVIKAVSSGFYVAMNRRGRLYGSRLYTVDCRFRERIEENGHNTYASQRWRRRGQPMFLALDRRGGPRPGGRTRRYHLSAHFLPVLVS
rRNA inh HTS: reduced GFP signal of wild-type E. coli, primary screen, bacterial rRNA inhibitor project, GFP/RFP fluorescence, OD600, single point | E. coli WT GFP vs humanized-ribosome RFP mutants, 24 h; active compounds read low; DMSO median 0, no signal -100 | GFP signal change (wild-type ribosome), % (test concentration not listed) | actives 1.6% (n = 350,000);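 active = significant combined selectivity score with lowered wild-type GFP, culture density cut under 30%, mutant RFP and density less affected; inactive = any of these conditions unmet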; note: one replicate is shown; some compounds called inactive have numbers as strong as hits
rRNA inh HTS OD600: further read-out of rRNA inh HTS, marked with its call; OD600 change, %; measured here: OD600 growth;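 optical density of the mix in the first replicate; 0 = DMSO median and -100 = no signal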
rRNA inh HTS RFP: second read-out of rRNA inh HTS, no call of its own (marks repeat the call); RFP signal change, %; measured here: RFP humanized mutant strains;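 first replicate; 0 = DMSO median and -100 = no signal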
An asterisk follows results filed as active; i = inactive; . = no result given.

[1] CCOC(=O)[C@]12Cc3cc(C)ccc3[C@H]1N(CCC(=O)OC)C(=O)c1ccccc12
[2] CCC1(NS(=O)(=O)c2ccc(N)cc2)C(=O)N(C)C(=O)N(C)C1=O
[3] CN1C[C@H]2CON(C)[C@H]2C[C@H]1c1cccc(Br)c1
[4] O=[N+]([O-])c1ccc(N2CCOCC2)c2c1no[n+]2[O-]
[5] O=C(O)[C@H]1[C@H](CO)[C@H]2Cn3c(ccc(-c4ccncc4)c3=O)[C@@H]1N2C(=O)C1CCC1
[6] O=C(Cc1ccncc1)N1CCCCN2[C@@H](CO)[C@@H](c3ccc(-c4ccncc4)cc3)[C@@H]2C1

Screen / compound no.	1	2	3	4	5	6
AF4-AF9 inh	-3.4	1.5	-2.0	6.4	-0.4	0.2
FGF22 binding	i	i	i	i	i	i
rRNA inh HTS	-62	4	8	-24*	1	2
rRNA inh HTS OD600	-81	2	22	7.5*	-2	1
rRNA inh HTS RFP	-23	-0.4	-1.5	-0.8*	-0.5	-1.4

[7] C[C@H]1CCC/C=C/[C@@H]2C[C@H](O)C[C@H]2[C@@H](O)/C=C/C(=O)O1
[8] CCOC(=O)[C@]12Cc3cc(OC)ccc3[C@H]1N(CCC(=O)OC)C(=O)c1cc(OC)ccc12
[9] COc1ccc(CN2Cc3cc(-c4ccccc4)ccc3-n3nncc3C2)cc1
[10] Cc1nc2ccccc2c(=O)n1-c1c(Cl)cccc1Cl
[11] Nc1ccc2ccccc2c1
[12] CSCCC(c1nnnn1C1CCCCC1)N1CCC2(CC1)C(=O)NCN2c1ccccc1 (stereo not given)

Screen / compound no.	7	8	9	10	11	12
AF4-AF9 inh	2.8	-1.7	0.4	-3.9	13	7.2
FGF22 binding	i	i	i	i	i	i
rRNA inh HTS	9	-52	-16	1	-6	-15
rRNA inh HTS OD600	3	-68	-3	-13	-31	-29
rRNA inh HTS RFP	4.2	-14	12	2.0	-2.9	-2.7

[13] O=C(O)c1ccc([N+](=O)[O-])c([N+](=O)[O-])c1
[14] CCOC(=O)[C@]12Cc3cc(Cl)ccc3[C@H]1N(C(C)C)C(=O)c1ccccc12
[15] c1ccc(Nc2ccc3ccccc3c2)cc1
[16] COc1cc(OC)cc(C(=O)NCCN2CCC3(CC2)C(=O)NCN3c2ccccc2)c1
[17] O=C1CC=C2C3CC4N(CCC45c4ccccc4N1C25)CC3=CCO (stereo not given)
[18] COC(=O)c1cn(Cc2ccc(F)cc2)c2ccccc12

Screen / compound no.	13	14	15	16	17	18
AF4-AF9 inh	-2.2	-5.8	10	7.3	-2.3	-3.7
FGF22 binding	i	i	i	i	i	i
rRNA inh HTS	-5	-54	-24*	12	2	-49
rRNA inh HTS OD600	3	-79	-1.4*	-9	8	-72
rRNA inh HTS RFP	-3.4	-18	-1.8*	4.5	6.9	-14

[19] Cc1ccccc1-c1ccc2c(c1)CNCc1cnnn1-2
[20] COc1ccc(CCNC2(C#N)CCCCC2)cc1OC
[21] COC(=O)C1=C(C)NC(=S)NC1c1ccc(N(CCCl)CCCl)cc1Cl (stereo not given)
[22] COc1ccc(C#Cc2ccc([C@H]3[C@@H](CO)N4CCCCN(C(=O)Cc5cccnc5)C[C@H]34)cc2)cc1
[23] COC(=O)[C@@H]1[C@@H](CO)[C@@H]2Cn3c(ccc(C4=CCCC4)c3=O)[C@H]1N2CC1CCCCC1
[24] CCOC(=O)[C@]12Cc3cc(OC)ccc3[C@H]1N(C(C)C)C(=O)c1ccccc12

Screen / compound no.	19	20	21	22	23	24
AF4-AF9 inh	0.6	2.8	1.2	-0.5	3.3	-1.5
FGF22 binding	i	i	i	i	i	i
rRNA inh HTS	-2	-1	-4	-60	1	-63
rRNA inh HTS OD600	-15	3	-7	-74	-1	-79
rRNA inh HTS RFP	2.8	6.5	8.5	-12	3.6	-24

[25] Oc1ccc(Cl)cc1Cc1ccccc1
[26] CCCNC(=O)N1[C@@H]2Cn3c(ccc(-c4ccccc4OC)c3=O)[C@H]1[C@@H](C(=O)O)[C@@H]2CO
[27] COC(=O)[C@@H]1[C@@H](CO)[C@@H]2Cn3c(ccc(-c4ccncc4)c3=O)[C@H]1N2S(=O)(=O)c1ccccc1F
[28] O=C(NC1CCCCC1)N1Cc2cc(-c3ccccc3)ccc2-n2nncc2C1
[29] COC(=O)[C@H]1[C@H](CO)[C@H]2Cn3c(ccc(-c4ccc(F)cc4)c3=O)[C@@H]1N2C(C)=O
[30] COC(=O)C1=C(c2ccc(OCc3ccccc3)cc2)C[C@@H]2CC[C@H]1N2C(=O)NCCc1ccc(F)cc1

Screen / compound no.	25	26	27	28	29	30
AF4-AF9 inh	0.9	-1.3	-4.0	-0.7	-2.1	-4.1
FGF22 binding	i	i	i	i	i	i
rRNA inh HTS	-54	2	3	-12	1	-7
rRNA inh HTS OD600	-79	4	3	-28	-4	-7
rRNA inh HTS RFP	-16	-0.8	0.7	0.0	0.7	-0.4

An excerpt from above in order of molar mass, rising.
[28] O=C(NC1CCCCC1)N1Cc2cc(-c3ccccc3)ccc2-n2nncc2C1
[29] COC(=O)[C@H]1[C@H](CO)[C@H]2Cn3c(ccc(-c4ccc(F)cc4)c3=O)[C@@H]1N2C(C)=O
[27] COC(=O)[C@@H]1[C@@H](CO)[C@@H]2Cn3c(ccc(-c4ccncc4)c3=O)[C@H]1N2S(=O)(=O)c1ccccc1F

Screen / compound no.	28	29	27
AF4-AF9 inh	-0.7	-2.1	-4.0
FGF22 binding	i	i	i
rRNA inh HTS	-12	1	3
rRNA inh HTS OD600	-28	-4	3
rRNA inh HTS RFP	0.0	0.7	0.7

Other records follow.
[31] O=C(Cc1ccccn1)N1CCCCN2[C@@H](CO)[C@H](c3ccc(-c4ccccc4)cc3)[C@@H]2C1
[32] CCc1ccc(OCC(=O)N2CCN(CC(=O)Nc3ccccc3Cl)CC2)cc1
[33] O=c1[nH]c2ccccc2n1C1CCN(C(c2nnnn2Cc2ccccc2)C2CC2)CC1 (stereo not given)
[34] COC(=O)[C@@H]1[C@@H](CO)[C@@H]2Cn3c(ccc(C4=CCCCC4)c3=O)[C@H]1N2C(=O)CC1CC1
[35] CCCCOC1OCN(C2CCCCC2)CC1(C)C (stereo not given)
[36] CN(c1ccccc1)P(=O)(N1CC1)N1CC1

Screen / compound no.	31	32	33	34	35	36
AF4-AF9 inh	-4.9	-0.8	-0.3	0.6	-2.6	-0.2
FGF22 binding	i	i	i	i	i	i
rRNA inh HTS	-1	-48	-16	-1	4	10
rRNA inh HTS OD600	11	-72	-30	9	20	19
rRNA inh HTS RFP	-1.7	-12	-3.9	-1.3	-2.9	-2.2

[37] CSc1cccc(NP2(=O)OCC(C)([N+](=O)[O-])CO2)c1 (stereo not given)
[38] O=C1NCN(c2ccccc2)C12CCN(C(c1nnnn1-c1ccc3c(c1)OCCO3)C1CC1)CC2 (stereo not given)
[39] CC(=O)C1CCC2C3CC(O)C4CC(O)CCC4(C)C3CCC12C (stereo not given)
[40] CCN(C=C1CC2C3CC=C4CC(O)CCC4(C)C3CCC2(C)C1=O)CC (stereo not given)
[41] CCOC(=O)CNC(=O)N1Cc2cc(-c3ccccc3)ccc2-n2nncc2C1
[42] Cc1cc(C(=O)OC(C)C(=O)Nc2ccccc2)c(C)n1C1CC1 (stereo not given)

Screen / compound no.	37	38	39	40	41	42
AF4-AF9 inh	2.1	5.8	-0.3	-1.9	-1.7	5.9
FGF22 binding	i	i	i	i	i	i
rRNA inh HTS	2	21	-6	-4	-11	2
rRNA inh HTS OD600	-6	11	8	-7	-17	-12
rRNA inh HTS RFP	1.7	5.2	8.3	10	-2.3	-0.2

[43] CN(C)CC#Cc1ccc([C@@H]2[C@@H](CO)N3CCCCN(C(=O)Cc4ccccn4)C[C@H]23)cc1
[44] CN(C)c1ccc([N+](=O)[O-])c([N+](=O)[O-])c1
[45] O=c1[nH]c2ccccc2n1C1CCN(C(CCc2ccccc2)c2nnnn2-c2ccc3c(c2)OCCO3)CC1 (stereo not given)
[46] O=C(CCc1ccccc1)N1Cc2cc(N3CCOCC3)ccc2-n2nncc2C1
[47] O=C(Cc1ccccn1)N1CCCCN2[C@H](CO)[C@@H](c3ccc(C#Cc4ccccc4)cc3)[C@H]2C1
[48] CCOC(=O)[C@]12Cc3ccsc3[C@H]1N(Cc1ccccc1)C(=O)c1ccccc12

Screen / compound no.	43	44	45	46	47	48
AF4-AF9 inh	11	7.4	-1.6	-1.8	-1.0	-2.1
FGF22 binding	i	.	i	i	i	i
rRNA inh HTS	6	0	7	3	-58	-20
rRNA inh HTS OD600	15	7	14	3	-76	-22
rRNA inh HTS RFP	-1.6	0.4	11	0.6	-11	-16

[49] O=c1[nH]c2ccccc2n1C1CCN(C(c2ccccc2)c2nnnn2Cc2ccccc2)CC1 (stereo not given)
[50] CC12C=CC(=O)CC1CCC1C2CCC2(C)C(O)C(O)CC12 (stereo not given)
[51] O=C(Cc1ccccc1)N1CCCCN2[C@H](C1)[C@@H](c1ccc(-c3ccccc3)cc1)[C@@H]2CO
[52] COC(=O)C1=C(c2ccc(OCc3ccccc3)cc2)C[C@@H]2CC[C@H]1N2C(=O)NCc1ccccc1OC
[53] O=C(Cc1cccnc1)N1CCCCN2[C@H](C1)[C@H](c1ccc(/C=C/c3ccccc3)cc1)[C@@H]2CO
[54] N#Cc1cccc(-c2ccc([C@H]3[C@@H](CO)N4CCCCN(C(=O)Cc5ccncc5)C[C@@H]34)cc2)c1

Screen / compound no.	49	50	51	52	53	54
AF4-AF9 inh	2.8	0.2	-1.7	-1.1	11	-1.1
FGF22 binding	i	i	i	i	i	i
rRNA inh HTS	-8	-5	-58	-3	-52	-1
rRNA inh HTS OD600	-17	-33	-71	12	-71	3
rRNA inh HTS RFP	0.1	5.4	-8.7	5.0	-9.2	-0.7

[55] CCCN1[C@@H]2c3cccc(=O)n3C[C@H]1[C@H](CO)[C@H]2C(=O)N(C)C
[56] CS(=O)(=O)N1Cc2cnnn2-c2ccccc2C1C#N (stereo not given)
[57] COc1ccc(-n2nnnc2C(c2ccccc2)N2CCC3(CC2)C(=O)NCN3c2ccccc2)cc1 (stereo not given)
[58] Cc1cccc(C)c1-n1nnnc1C(CCc1ccccc1)N1CCC(n2c(=O)[nH]c3ccccc32)CC1 (stereo not given)
[59] CC1([N+](=O)[O-])COP(=O)(NCc2cccnc2)OC1 (stereo not given)
[60] CCOC(=O)[C@]12Cc3ccccc3[C@H]1N(C(C)C)C(=O)c1ccccc12

Screen / compound no.	55	56	57	58	59	60
AF4-AF9 inh	0.4	-1.3	4.1	-4.6	-0.3	-9.7
FGF22 binding	i	i	i	i	i	i
rRNA inh HTS	6	5	-6	23	12	-58
rRNA inh HTS OD600	4	10	-7	32	23	-74
rRNA inh HTS RFP	0.0	-1.9	3.9	6.2	1.0	-27

[61] COc1cc(C(=O)N2Cc3ccccc3-n3nncc3C2)cc(OC)c1OC
[62] CC(=O)C1CCC2(O)C3CCC4=CC(=O)CCC4(C)C3CCC12C (stereo not given)
[63] Cc1ccc(OC(=O)N(C)C[C@H]2OCc3ccccc3-c3c(n(C)c4ccccc34)C(=O)N([C@H](C)CO)C[C@H]2C)cc1
[64] C=CCCC1(CC(C)C)C(=O)NC(=S)NC1=O

Screen / compound no.	61	62	63	64
AF4-AF9 inh	-4.7	4.9	3.2	0.8
FGF22 binding	i	i	i	i
rRNA inh HTS	-6	-8	-1	4
rRNA inh HTS OD600	-2	-21	-2	-4
rRNA inh HTS RFP	-2.6	0.2	5.3	-3.0

In the list so far, these have an aryl methoxy group.
[8] CCOC(=O)[C@]12Cc3cc(OC)ccc3[C@H]1N(CCC(=O)OC)C(=O)c1cc(OC)ccc12
[9] COc1ccc(CN2Cc3cc(-c4ccccc4)ccc3-n3nncc3C2)cc1
[16] COc1cc(OC)cc(C(=O)NCCN2CCC3(CC2)C(=O)NCN3c2ccccc2)c1
[20] COc1ccc(CCNC2(C#N)CCCCC2)cc1OC
[22] COc1ccc(C#Cc2ccc([C@H]3[C@@H](CO)N4CCCCN(C(=O)Cc5cccnc5)C[C@H]34)cc2)cc1
[24] CCOC(=O)[C@]12Cc3cc(OC)ccc3[C@H]1N(C(C)C)C(=O)c1ccccc12
[26] CCCNC(=O)N1[C@@H]2Cn3c(ccc(-c4ccccc4OC)c3=O)[C@H]1[C@@H](C(=O)O)[C@@H]2CO
[52] COC(=O)C1=C(c2ccc(OCc3ccccc3)cc2)C[C@@H]2CC[C@H]1N2C(=O)NCc1ccccc1OC

Screen / compound no.	8	9	16	20	22	24	26	52
AF4-AF9 inh	-1.7	0.4	7.3	2.8	-0.5	-1.5	-1.3	-1.1
FGF22 binding	i	i	i	i	i	i	i	i
rRNA inh HTS	-52	-16	12	-1	-60	-63	2	-3
rRNA inh HTS OD600	-68	-3	-9	3	-74	-79	4	12
rRNA inh HTS RFP	-14	12	4.5	6.5	-12	-24	-0.8	5.0

[57] COc1ccc(-n2nnnc2C(c2ccccc2)N2CCC3(CC2)C(=O)NCN3c2ccccc2)cc1 (stereo not given)
[61] COc1cc(C(=O)N2Cc3ccccc3-n3nncc3C2)cc(OC)c1OC

Screen / compound no.	57	61
AF4-AF9 inh	4.1	-4.7
FGF22 binding	i	i
rRNA inh HTS	-6	-6
rRNA inh HTS OD600	-7	-2
rRNA inh HTS RFP	3.9	-2.6

Screening data from PubChem BioAssay.

Some of the compounds tested; the hit share may differ from the screen's.
